# SARS PLP yeast: qHTS of Yeast-based Assay for SARS-CoV PLP | AID 485353, 2010 | actives 0.19% (n = 330,000) | S. cerevisiae expressing SARS-CoV PLpro, growth rescue; control for the full effect not named in the record | Potency, µM (series often up to 32.9 µM), for the others: at the top dose activity, positive = growth rescue; active means well fitted rising curve with a large enough effect; inconclusive means small, poorly fitted or top-dose-only effect; inactive means no such curve, though single readings can be large or run the other way; also: 0% is about no effect; nearly all actives have a fitted effect of over 55% in size; growth read by luminescence after 48 h
# StopGo reporter: High Throughput Screening for Foot and Mouth Disease Virus Antivirals | actives 1.2% (n = 410,000) | Potency, µM (doses to about 57.9 µM), for the others: top-dose signal change, negative = less light | human cells with a luciferase reporter of 2A StopGo recoding; control for the full effect not named in the record; active = well fitted falling curve with a large enough effect; inconclusive = small, poorly fitted or top-dose-only effect; inactive = no such curve, though single readings can be large or run the other way; tested in HEK293T cells; also: % is scaled to controls: 0 for no effect and ±100 for the full control effect; nearly all actives have a fitted effect of over 45% in size; luciferase light after 4 h
# Cruzain inh noDet: qHTS Assay for Promiscuous and Specific Inhibitors of Cruzain (without detergent); purified cruzain, Z-FR-AMC fluorescence, no detergent; Potency, µM, for inactives: max response, negative = inhibition, actives largely listed as inhibitors; actives 2.3% (n = 200,000); AID 1476, 2009;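 also: plate controls were enzyme without inhibitor for no effect and buffer without enzyme for full effect; nearly all actives have a fitted effect of over 40% in size; top concentration of the series not given in the record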
# Target sequence (P25779 123-467 limits assumed): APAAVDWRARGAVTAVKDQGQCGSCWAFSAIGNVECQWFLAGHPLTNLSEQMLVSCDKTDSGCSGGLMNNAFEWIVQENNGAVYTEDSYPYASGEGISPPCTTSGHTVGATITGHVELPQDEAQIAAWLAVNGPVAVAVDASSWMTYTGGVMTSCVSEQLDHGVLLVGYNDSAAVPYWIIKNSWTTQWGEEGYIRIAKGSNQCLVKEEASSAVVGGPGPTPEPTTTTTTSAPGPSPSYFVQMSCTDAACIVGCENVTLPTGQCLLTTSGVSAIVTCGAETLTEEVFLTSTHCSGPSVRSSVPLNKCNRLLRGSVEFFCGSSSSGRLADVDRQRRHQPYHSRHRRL
#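 Purified cruzain at 1.5 nM, pre-incubated 15 min with compound at room temperature in 100 mM sodium acetate pH 5.5, 5 mM DTT, 0.00005% Triton X-100. Reaction started with 2 uM Z-FR-AMC; AMC fluorescence increase over 60 s gives rate.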
# RE007 growth inh: qHTS Assay for Inhibitors of the HIV-1 protein Vpr; S. pombe RE007 Vpr strain, BacTiter-Glo ATP luminescence, 24 h; control for the full effect not named in the record; actives 0.21% (n = 360,000); Potency, µM (titrated, usually from 92.2 µM), without a hit: at the highest dose activity change, negative = less growth; active = well fitted falling curve with a large enough effect; inconclusive = small, poorly fitted or top-dose-only effect; inactive = no such curve, though single readings can be large or run the other way;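 also: % is scaled to controls: 0 for no effect and ±100 for the full control effect; nearly all actives have a fitted effect of over 50% in size; the assay follows cell death caused by Vpr and the record does not say whether a fall means rescue or toxicity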
#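 Fission yeast RE007 carrying one integrated HIV-1 vpr copy, seeded at OD 0.01 in PMG+AL medium with 23 nL pinned compound. Grown 24 h at 30 degrees; viability read by BacTiter-Glo luminescence after 5 min.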
# Lassa entry inh: qHTS for Inhibitors of binding or entry into cells for Lassa Virus; actives 1.2% (n = 300,000); Lassa virus pseudotype entry inhibition, cell reporter; control for the full effect not named in the record; Potency, µM (titrated, usually from 37.9 µM), for inactives: at the top dose activity change, negative = inhibition, hits mostly inhibitors; active means well fitted inhibition curve with a large enough effect; inconclusive means small, poorly fitted or top-dose-only effect, or effect the other way; inactive means flat fitted curve, though single readings scatter; tested in HEK293 cells; also: % is scaled to controls: 0 for no effect and ±100 for the full control effect; nearly all actives have a fitted effect of over 50% in size; luciferase read-out
# MARV entry inh: qHTS for inhibitors of binding or entry into cells for Marburg Virus | actives 1.8% (n = 300,000) | Potency, µM (top dose mostly 37.8 µM), for the others: at the highest dose activity change, negative = inhibition, usual class: inhibitors | Marburg virus pseudotyped entry inhibition, cell reporter; control for the full effect not named in the record; about a third of the inactives were read at about 46 µM; active = well fitted inhibition curve with a large enough effect; inconclusive = small, poorly fitted or top-dose-only effect, or effect the other way; inactive = flat fitted curve, though single readings scatter; tested in HEK293 cells; about a fifth of its hits are not listed in these tables; also: % is scaled to controls: 0 for no effect and ±100 for the full control effect; luciferase read-out
# NS1 function inh: qHTS Assay for Inhibitors of Influenza NS1 Protein Function. S. cerevisiae slowed by influenza A NS1, growth recovery by OD600. Potency, µM (titrated, usually from 46.1 µM), for inactives: at the highest dose activity, positive = more growth. actives 0.4% (n = 270,000). AID 2326, 2010; active means well fitted rising curve with a large enough effect; inconclusive means small, poorly fitted or top-dose-only effect; inactive means no such curve, though single readings can be large or run the other way; also: nearly all actives have a fitted effect of over 50% in size
#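 A cell-based growth assay was used: compounds that relieve NS1-induced slow growth of budding yeast raise OD600. Assay medium was yeast nitrogen base with ammonium sulphate and -URA supplement, pH 6.0, with 2% galactose.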
# Cruzain Triton: qHTS Assay for Promiscuous and Specific Inhibitors of Cruzain (with detergent); Cruzipain (Trypanosoma cruzi), P25779; Potency, µM, for the others: max response, negative = inhibition, usual class: inhibitors; purified cruzain, Z-FR-AMC fluorescence, 0.01% Triton; actives 0.43% (n = 200,000);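 also: plate controls were neutral wells for no effect and buffer without enzyme for full effect; nearly all actives have a fitted effect of over 40% in size; top concentration of the series not given in the record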
#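 15 min RT preincubation of 1.5 nM cruzain with compound, then 2 uM Z-FR-AMC added; kinetic AMC fluorescence, 60 s delta. Triton X-100 0.01%, pH 5.5.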
# * hit, by the source's call; ? = inconclusive; . = no result given; & = joins results of further samples; [ ] = another dose, or the depositor's remark. Unless noted, calls follow the shape of the dose curve; as a rule, active = well fitted curve in the direction sought with a large enough effect; inconclusive = small, poorly fitted or top-dose-only effect, or another doubt; inactive = no such curve, though single readings can be large; an effect the other way counts as inactive or inconclusive. Potency is read from the fitted curve at half-maximal effect.
# Below each SMILES – MARV entry inh	Cruzain inh noDet	NS1 function inh	Lassa entry inh	StopGo reporter	RE007 growth inh	SARS PLP yeast	Cruzain Triton
CN(c1ccc(C(=O)Nc2cccnc2)cc1)S(C)(=O)=O
    20.7%	-28.4%	1.7%	21.1%	-3.5%	-13.9%	-22.9%	-1.8%
NC(=O)c1ccc(Oc2ccc3c(c2)CCC3)c([N+](=O)[O-])c1
    -0.1%[46.1 µM]	.	-18.9%	-14.2%	-28.6%	14.5%	-29.3%	.
O=C(CCCn1c(=O)[nH]c2cc(Cl)ccc2c1=O)N1CCN(c2ccc([N+](=O)[O-])cc2)CC1
    ?	2.0%	-7.9%	1.4%	?	-10.5%	3.3%	-5.6%
COc1ccccc1C(=O)Nc1cccc2c1CCCC2
    ?	.	-11.3%	?	-14.9%	-10.4%	?	.
COc1ccc(C2Nc3ccccc3C(=O)N2Cc2ccco2)cc1COc1ccccc1F (stereo unspecified)
    ?	25.1µM*	4.7%	?	?	5.6%	8.6%	-7.4%
CC(NC(=O)c1ccccc1Cl)C1COc2ccccc2O1 (stereo unspecified)
    -14.1%[46.1 µM]	-5.3%	-1.4%	16.0%	45.6%[activator]	-6.6%	28.7%	-1.5%
Cc1ccc(Oc2nnc(-c3ccccc3)cc2C#N)cc1
    -1.1%	12.9%	2.0%	-29.1%	-19.1%	21.8%	-1.7%	2.3%
CCOCCCNc1nc2ccccc2n2c(CC)nnc12
    .	-7.0%	.	21.8%[46.1 µM]	16.4%	.	.	-0.9%
COc1ccc(C=NCCCN2CCOCC2)cc1
    -5.5%	-10.7%	8.1%	-0.8%	?	-11.7%	-12.4%	-2.3%
Cn1c(O)c(N=NC(=S)Nc2ccccc2F)c2cc(S(=O)(=O)N3CCOCC3)ccc21
    ?	.	.	?	?	-3.1%	-2.7%	.
Cc1ccc(SCC(=O)NCc2ccccc2)cc1
    .	.	-15.1%	.	44.1%[activator]	-4.9%	-0.6%	.
Cn1cc(CNC(=O)/C=C/c2ccc(Cl)cc2)cn1
    6.5%	6.2%	4.2%	7.5%	0.0%	2.1%	18.4%	-2.3%
COc1ccc(/C=N/Nc2nonc2N)cc1
    9.2%	-5.9%	-100.4%	0.2%	89.5%[activator]	10.8%	-17.2%	-2.4%
O=C(CCC(=O)N1CCN(S(=O)(=O)c2ccc(Cl)cc2)CC1)Nc1ccc(Cl)cc1Cl
    -27.8%	?	-27.6%	-15.6%	-10.2%	-9.0%	3.4%	-2.7%
COc1ccc(-c2nc(N/N=C(\C)c3ccc(O)cc3)c3ccccc3n2)cc1
    .	.	23.6%	.	-18.8%	0.3%	0.2%	.
COc1ccc(S(=O)(=O)NC(CC(=O)N2CCC3(CC2)OCCO3)c2ccco2)cc1 (stereo unspecified)
    8.6%&8.6%[46.1 µM]	-2.4%	-4.1%	8.7%	-18.1%	3.0%	1.7%	5.0%
OC1CCCCC1Sc1nc2ccccc2s1 (stereo unspecified)
    -1.4%	14.8%	?	13.0%	.	-27.1%	-0.7%	2.0%
[N-]=[N+]=NC[C@H](Cc1ccccc1)N1CC[C@@H](NC(=O)OCc2ccccc2)CCC1=O
    .	.	20.7%	.	46.6%[activator]	-6.7%	11.6%	.
NC1=NC(=O)/C(=C\c2ccc(-c3ccc(Cl)cc3)o2)S1
    .	.	0.2%	.	27.4%	7.2%	0.6%	.
Cc1ccc(NC(=O)CCNS(=O)(=O)c2cccc3nsnc23)cc1
    ?	-11.4%&-9.4%	-12.6%	14.7%[46.1 µM]	12.5%&15.3%	10.5%	-19.4%	-2.3%&-2.5%
Cc1ccc(C)c(Oc2coc3cc(O)ccc3c2=O)c1
    .	.	-10.0%	.	6.0%	11.5%	-13.1%	.
CC(=O)Cc1ccc(OC(C)C)cc1
    3.5%	.	6.9%	-3.3%	-1.3%	-7.2%	-0.8%	.
O=C1NC[C@H](c2ccccc2)N(CCc2cccc(F)c2)C1=O
    .	.	-2.0%	.	-10.2%	7.5%	1.9%	.
COc1ccc(C2C(C#N)C(C#N)N3CCCN23)cc1 (stereo unspecified)
    19.2%	-14.5%	9.9%	4.9%	14.3%	25.3%	4.4%	1.3%
Cc1cccnc1NC(=S)NC(=O)/C=C/c1ccccc1
    ?	.	4.5%	13.9%[46.1 µM]	25.2%	-3.6%	16.3%	.
CC(=O)c1cccc(NC(=O)c2cc(-c3ccco3)nc3ccccc23)c1
    ?	.	3.6%	-21.0%	-12.0%	-16.7%	-3.8%	.
CCC(C)(CC(=O)Nc1nccs1)c1ccccc1 (stereo unspecified)
    8.9%	.	5.9%	?	-29.3%	20.2%	1.7%	.
O=C(CN1C(=O)COc2ccccc21)c1cccc(Cl)c1
    -10.9%	-10.5%	-13.2%	-26.2%[14.3 µM]	5.6%	-11.9%	-0.8%	-4.7%
N=C1/C(=C\c2ccc(Br)o2)C(=O)N=C2SC(CC(=O)N3CCCCC3)=NN12
    .	.	15.5%	.	-5.0%	-0.9%	-13.4%	.
CCN1CCN(c2ccc(NC(=O)c3ccc(Cl)c(S(=O)(=O)N4CCCC4)c3)cc2)CC1
    ?	.	.	?	?	3.8%	0.6%	.
COc1ccccc1CNC(=O)C1CCCN(S(=O)(=O)c2c(C)[nH]c(=O)[nH]c2=O)C1 (stereo unspecified)
    -14.7%	-0.7%	-5.7%	6.2%	-3.4%	2.2%	0.4%	6.5%
Cc1ccc(-n2nc(C)c3c(-c4cccs4)c(C#N)c(N)nc32)cc1
    7.9%	-17.3%	?	-18.3%	-27.8%	-4.6%	4.8%	-8.1%
CCC(C)Oc1cc(-c2ccnc(Nc3cccc(Cl)c3)n2)ccn1 (stereo unspecified)
    .	.	0.8%	.	-1.9%	-0.7%	-3.6%	.
C/C(=N\NC(=O)c1cc(C)oc1C)c1ccc2c(c1)OCO2
    -1.0%[46.1 µM]	.	.	-11.0%	-0.9%	10.0%	-4.9%	.
CCOCCCN1CC(C(=O)NCc2ccc3c(c2)OCO3)CC1=O (stereo unspecified)
    10.9%	.	.	?	-15.5%	-0.6%	2.4%	.
COc1ccc(N(C(=O)c2ccc(F)cc2)C2=CC3CCC(C2)N3C)cc1 (stereo unspecified)
    -17.1%	12.8%	-2.8%	-15.1%	-13.8%	3.1%	-4.5%	2.0%
COc1cc(OC)cc(C(=O)NNC(=O)CN2C(=O)NC(C)(c3ccccc3)C2=O)c1 (stereo unspecified)
    3.1%	.	.	9.2%	-26.0%	8.6%	-1.5%	.
CN(C)S(=O)(=O)c1ccc(C(=O)NCC(=O)Nc2ccc(F)c(F)c2)cc1
    .	.	0.8%	.	-10.7%	16.7%	-0.1%	.
C[C@@H]1CC=C[C@H]2[C@H]1C(=O)N(Cc1ccccc1)[C@H]2c1ccc2ccccc2c1
    .	.	-101.5%	.	?	7.3%	-15.9%	.
Cc1cccc(NC(=O)CSc2nc(=O)n(Cc3cccnc3)c3c2CCC3)c1C
    .	-10.4%	.	-21.5%[46.1 µM]	0.0%	.	.	-0.5%
COc1cc(NC2=Nc3cccc4cccc2c34)cc(OC)c1OC
    ?	-8.0%	-5.4%	5.0%	-23.4%	-7.7%	22.0%	-7.0%
Cn1nnnc1SCC(=O)c1ccco1
    -0.4%	2.8%	3.0%	-9.0%	-2.9%	5.9%	4.0%	2.3%
COc1ccc(NS(=O)(=O)c2ccc3c(c2)NC(=O)CCS3)c(OC)c1
    .	0.2%	.	-6.0%[46.1 µM]	-29.2%	.	.	-1.5%
COC(=O)C(CC(=O)c1ccc(Br)cc1)n1ccnc1 (stereo unspecified)
    0.4%	-6.8%	-99.9%	.	.	.	-37.4%	-9.0%
Cn1nnnc1SCC(=O)Nc1ccc(Cl)c(S(=O)(=O)N2CCOCC2)c1
    .	.	-1.4%	.	-7.6%	-4.1%	-0.2%	.
COc1ccc(-c2c(-c3cc(OC)cc(OC)c3)n(C)c3ccc(-c4ccc(N(C)C)nc4)cc23)cc1
    0.3%	.	.	.	-6.9%	-1.4%	2.6%	.
O=S(=O)(Nc1ccc(-n2cccc2)cc1)c1ccc(Cl)cc1Cl
    -1.9%	-1.5%	15.8%	5.3%	0.0%	?	-21.4%	-4.1%
CC(Nc1ccc2c(c1)OCCO2)C(=O)Nc1ccc2c(c1)OCO2 (stereo unspecified)
    12.0%[46.1 µM]	.	.	-7.9%	-18.9%	-8.5%	1.5%	.
O=C(CCC1CCCN(C(=O)C2=CCCC2)C1)N1CCN(c2ccccn2)CC1 (stereo unspecified)
    0.8%[46.1 µM]	.	5.3%	-5.5%	-15.8%	-9.8%	1.5%	.
NC(C(=O)O)c1cc(=O)[nH]o1 (stereo unspecified)
    ?	9.7%	-3.1%	-2.8%	-19.5%&6.3%	1.0%[18.4 µM]	.	3.5%
Cc1ccc(NC(=O)Nc2nnc(N(CC(C)C)CC(C)C)s2)cc1Cl
    ?	-5.2%	.	17.1%[46.1 µM]	-15.8%	.	.	-6.0%
Cc1ccc2c(CN3CCN(Cc4ccccc4Cl)CC3)cc(=O)oc2c1
    2.7%[46.1 µM]	2.2%	.	0.8%[46.1 µM]	-17.8%	.	.	-1.0%
CC1CCCC(C)N1C(=O)Cn1cnc2cc([N+](=O)[O-])ccc2c1=O (stereo unspecified)
    15.3%[46.1 µM]	.	.	?	0.0%	-2.0%	2.6%	.
O=C1C2C3c4ccccc4C(c4ccccc43)[C@@H]2C(=O)N1c1ccccn1 (stereo partly specified)
    -16.4%	.	0.4%	-16.0%	-27.2%	4.7%	0.8%	.
CC(C)c1ccc(NC(=O)CN(Cc2ccccc2)S(C)(=O)=O)cc1
    ?	-1.7%	-14.5%	?	-8.5%	12.9%	0.2%	-7.1%
CCn1c(SCC(=O)NC2CC2)nnc1-c1csc(C)c1
    .	.	-0.8%	.	-19.5%	-2.2%	-1.7%	.
CC1Oc2ccccc2OC1(O)c1ccc2ccccc2n1 (stereo unspecified)
    -4.5%	-4.2%	-3.8%	?	-21.9%	-1.8%	7.9%	-1.0%
